Screens from PubChem BioAssay.
KCNQ2 block: KCNQ2 potassium channel inhibitors, primary screen, cell-based, CHO-K1, FluxOR thallium flux, B-score (AID 2156) | 20 min; hits give low values; only compounds with negative scores are shown here; some inactives read as strong as hits | 310,000 compounds, 1.1% hits | B-score at 10 µM | Potassium voltage-gated channel subfamily KQT member 2 (Rattus norvegicus), O88943;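 active = fluorescence ratio B-score at most minus 3 library SDs, with starting brightness B-score within 2 library SDs, cut at about -5.5 in these data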
Target sequence (O88943 whole entry, looked up): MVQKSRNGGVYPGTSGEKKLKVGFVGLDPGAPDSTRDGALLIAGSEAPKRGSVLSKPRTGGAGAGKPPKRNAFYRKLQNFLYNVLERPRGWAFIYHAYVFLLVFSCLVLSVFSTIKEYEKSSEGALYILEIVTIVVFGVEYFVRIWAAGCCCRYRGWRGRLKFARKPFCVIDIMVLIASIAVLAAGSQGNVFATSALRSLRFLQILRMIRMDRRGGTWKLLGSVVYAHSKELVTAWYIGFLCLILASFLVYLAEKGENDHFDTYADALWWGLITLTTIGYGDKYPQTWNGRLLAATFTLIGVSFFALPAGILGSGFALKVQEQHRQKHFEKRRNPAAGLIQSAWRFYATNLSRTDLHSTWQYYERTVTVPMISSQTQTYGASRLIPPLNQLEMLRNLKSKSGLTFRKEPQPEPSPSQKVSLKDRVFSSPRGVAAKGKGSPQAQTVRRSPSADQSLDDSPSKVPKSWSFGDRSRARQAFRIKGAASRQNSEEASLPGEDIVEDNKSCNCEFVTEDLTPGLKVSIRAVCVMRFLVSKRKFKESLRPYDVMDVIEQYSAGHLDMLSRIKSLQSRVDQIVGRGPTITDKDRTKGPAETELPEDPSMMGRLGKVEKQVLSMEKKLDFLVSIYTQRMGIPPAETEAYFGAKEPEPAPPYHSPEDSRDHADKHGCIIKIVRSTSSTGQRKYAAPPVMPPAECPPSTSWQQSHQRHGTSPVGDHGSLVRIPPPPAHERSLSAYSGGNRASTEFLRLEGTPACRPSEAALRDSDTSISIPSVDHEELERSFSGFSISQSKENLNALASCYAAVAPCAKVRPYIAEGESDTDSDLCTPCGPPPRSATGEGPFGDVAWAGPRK
KCNQ2 block baseline: further read-out of KCNQ2 block, marked with its call; B-score; measured here: initial fluorescence intensity artifact check;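 brightness before thallium and not channel activity; 0 = typical well and far values either way flag optical interference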
* marks the source's active call; other numbers are inactive results. Not all compounds are listed; count on the stated rates, not on these rows.

Results for COc1ccc(-c2nnc(NC(=O)C3CCCO3)s2)cc1 (stereo not drawn) ?
KCNQ2 block: inactive; KCNQ2 block baseline: 0.99

Results for COc1cccc(C2C=C(c3ccc(OC)cc3OC)Nc3nnnn32)c1 (stereo not drawn) ?
KCNQ2 block: inactive; KCNQ2 block baseline: 2.2

How did Cc1ccc(S(=O)(=O)N2C(=O)CCC2C(=O)O/N=C(\N)c2cccc([N+](=O)[O-])c2)cc1 (stereo not drawn) do in these assays?
KCNQ2 block: inactive; KCNQ2 block baseline: 0.93

How did Cc1ccc(S(=O)(=O)/C=C2\NC(=O)CS2)cc1 do in these assays?
KCNQ2 block: inactive; KCNQ2 block baseline: -1.1

What do the screens show for `O=C(O)/C=C/c1ccc(S(=O)(=O)Nc2cccnc2)cc1`?
KCNQ2 block: inactive; KCNQ2 block baseline: 2.5

Results for CC(=O)c1ccc(NC(=O)C[n+]2ccc(N(C)C)cc2)cc1 ?
KCNQ2 block: inactive; KCNQ2 block baseline: -0.1

What do the screens show for `Cc1cc(=O)[nH]c(-c2cccs2)n1`?
KCNQ2 block: inactive; KCNQ2 block baseline: -0.61

Results for O=S(=O)(NCCc1ccccn1)c1ccc(OC(F)(F)F)cc1 ?
KCNQ2 block: inactive; KCNQ2 block baseline: 0.39

What do the screens show for `CCOC(=O)C1CCN(C(=O)c2ccc3nc(-c4ccc(OC)cc4)c(-c4ccc(OC)cc4)nc3c2)CC1`?
KCNQ2 block: inactive; KCNQ2 block baseline: -0.83

Results for Cc1ccc(NC(=O)N2CCSc3ccccc32)cc1 ?
KCNQ2 block: inactive; KCNQ2 block baseline: -1.1

Results for COc1ccc(CNC(=O)CSCc2c(F)cccc2Cl)cc1 ?
KCNQ2 block: inactive; KCNQ2 block baseline: -0.42

What do the screens show for `O=C(NC(Cc1ccccc1)C(=O)O)/C(=C/c1ccc(Br)cc1)NC(=O)c1ccc(Br)o1` (stereo not drawn)?
KCNQ2 block: inactive; KCNQ2 block baseline: 1.9

Among those listed so far, two contain fluorine.
Results for O=S(=O)(NCCc1ccccn1)c1ccc(OC(F)(F)F)cc1 ?
KCNQ2 block: inactive; KCNQ2 block baseline: 0.39

Results for COc1ccc(CNC(=O)CSCc2c(F)cccc2Cl)cc1 ?
KCNQ2 block: inactive; KCNQ2 block baseline: -0.42

Next results.
How did Cc1ccc(-n2nc3c(=O)n(CCCC(=O)NCc4ccccc4F)nc(C)c3c2C)cc1 do in these assays?
KCNQ2 block: inactive; KCNQ2 block baseline: 1.1

Results for CCOc1cc(C2NN=C(c3ccccc3)S2)ccc1OCc1ccccc1Cl (stereo not drawn) ?
KCNQ2 block: inactive; KCNQ2 block baseline: -0.42

Results for CCCCN(C(=O)c1c(CC)noc1C)c1c(N)n(CCCC)c(=O)[nH]c1=O ?
KCNQ2 block: inactive; KCNQ2 block baseline: 1.3

Results for CCCOc1cc(C)c(S(=O)(=O)N2CCN(C)CC2)cc1C ?
KCNQ2 block: inactive; KCNQ2 block baseline: -0.04

Results for O=C(Nc1nccs1)c1ncc(Cl)c(Cl)c1Cl ?
KCNQ2 block: inactive; KCNQ2 block baseline: 0.77

What do the screens show for `COc1ccc(S(=O)(=O)N2CCCOC2CNC(=O)C(=O)NCCc2ccco2)cc1C` (stereo not drawn)?
KCNQ2 block: inactive; KCNQ2 block baseline: -1.3

How did Cc1nn(Cc2ccc(Cl)cc2)c(C)c1NC(=O)c1cc(C(C)C)on1 do in these assays?
KCNQ2 block: inactive; KCNQ2 block baseline: -0.37

Results for COc1ccc(C2Nc3ccccc3C(=O)N2c2ccc(F)cc2)cc1Cn1nnc2ccccc21 (stereo not drawn) ?
KCNQ2 block: inactive; KCNQ2 block baseline: -0.31

Results for CC(C)CCNc1ncnc2c1nnn2Cc1ccccc1Cl ?
KCNQ2 block: inactive; KCNQ2 block baseline: -0.53

What do the screens show for `O=C(CC1Nc2ccccc2NC1=O)c1ccccc1` (stereo not drawn)?
KCNQ2 block: inactive; KCNQ2 block baseline: 3.2

What do the screens show for `NC1=NC[C@H](Cc2ccccc2)N1CCCCC1CCCCC1`?
KCNQ2 block: inactive; KCNQ2 block baseline: -0.76

What do the screens show for `COc1ccc(-c2cc3c(=O)n(CC(=O)NCCCN4CCN(Cc5ccccc5)CC4)ncn3n2)cc1`?
KCNQ2 block: inactive; KCNQ2 block baseline: -0.11

Results for Cc1ccc(C(=O)N/C(=C\c2ccccc2)C(=O)NCCCn2ccnc2)cc1 ?
KCNQ2 block: inactive; KCNQ2 block baseline: 2.9

How did Fc1ccc(NC(=S)N2CCCN(c3ccc(C(F)(F)F)cn3)CC2)c(F)c1 do in these assays?
KCNQ2 block: inactive; KCNQ2 block baseline: -0.04

Results for C/C(=N\NC(=O)c1cccnc1)c1c(O)cc(C)oc1=O ?
KCNQ2 block: inactive; KCNQ2 block baseline: 0.31

What do the screens show for `CC1(C)CC(N2CCC(=O)N(C3CC(C)(C)NC(C)(C)C3)C2)CC(C)(C)N1`?
KCNQ2 block: inactive; KCNQ2 block baseline: -0.33

What do the screens show for `CCCN(CCC)CCCNC(=O)c1nn(-c2cccc(OC)c2)c(=O)c2ccccc12`?
KCNQ2 block: inactive; KCNQ2 block baseline: 0.99

Results for Cc1cc(C(=O)N2C(C)CCCC2C)no1 (stereo not drawn) ?
KCNQ2 block: inactive; KCNQ2 block baseline: -0.25

How did CN(CC1CCN(CCc2cccc(C(F)(F)F)c2)CC1)C(=O)c1ccc(F)cc1 do in these assays?
KCNQ2 block: inactive; KCNQ2 block baseline: 0.51

What do the screens show for `Cc1cc(C)n(-c2ccc(C(=O)OCC(=O)Nc3ccc(Cl)cc3[N+](=O)[O-])cc2)n1`?
KCNQ2 block: inactive; KCNQ2 block baseline: -0.04

What do the screens show for `Cc1cc(COc2ccccc2)oc1C(=O)O`?
KCNQ2 block: inactive; KCNQ2 block baseline: -0.35

How did CC(=O)n1cc([C@H]2C=C(C(=O)N3CCN(Cc4ccccc4)CC3)O[C@@H](OCCCCO)C2)c2ccccc21 do in these assays?
KCNQ2 block: inactive; KCNQ2 block baseline: -0.99

What do the screens show for `COc1ccc(C(C(=O)NC(C)(C)C)N(Cc2ccccc2)C(=O)CCC(=O)Nc2cc(C)on2)cc1` (stereo not drawn)?
KCNQ2 block: inactive; KCNQ2 block baseline: 0.79

What do the screens show for `Cc1ccc(C2=NN=C(NC(=O)CSc3nc(C)cc(C)n3)SC2)cc1`?
KCNQ2 block: inactive; KCNQ2 block baseline: -0.05

How did CC1CC/C(=N/Nc2ccccc2)C(=O)N1 (stereo not drawn) do in these assays?
KCNQ2 block: inactive; KCNQ2 block baseline: -0.74

Results for CCOC(=O)C1(Cc2cccc(OC)c2)CCCN(S(=O)(=O)c2cccnc2)C1 (stereo not drawn) ?
KCNQ2 block: inactive; KCNQ2 block baseline: 1.8

Results for COc1cc(/C=C(\C#N)C(=O)c2c[nH]c3ccccc23)cc(OC)c1O ?
KCNQ2 block: inactive; KCNQ2 block baseline: -0.77

Results for COc1ccc(NC(=O)/C(=C\c2cccnc2)NC(=O)c2cccs2)cc1 ?
KCNQ2 block: inactive; KCNQ2 block baseline: -0.16

How did O=C(O)c1ccc(CNC(=O)c2ccccc2NC(=O)c2ccc([N+](=O)[O-])cc2)cc1 do in these assays?
KCNQ2 block: inactive; KCNQ2 block baseline: 0.01

Results for CC(=O)c1c(C)[nH]c(C(=O)N2CCN(C(=O)c3ccco3)CC2)c1C ?
KCNQ2 block: inactive; KCNQ2 block baseline: 0.57

What do the screens show for `CCc1cccc(CC)c1N(COC)C(=O)Cn1c(CO)nc2ccccc21`?
KCNQ2 block: inactive; KCNQ2 block baseline: 1.2

What do the screens show for `CCOC(=O)c1c(NC(=O)c2ccc(C)cc2)sc2c1CC(C)(C)OC2`?
KCNQ2 block: inactive; KCNQ2 block baseline: -0.05

How did CNC(=O)Cc1csc2ccc(C)cc12 do in these assays?
KCNQ2 block: inactive; KCNQ2 block baseline: 0.28

Results for CCCN(CCC)S(=O)(=O)c1ccc(Cl)c(OC)c1 ?
KCNQ2 block: inactive; KCNQ2 block baseline: 0.7

Results for CCCCn1c(CN2C(=O)c3ccccc3C2=O)nc2ccccc2c1=O ?
KCNQ2 block: inactive; KCNQ2 block baseline: 0.93

Results for Cc1ccc(C)c(N(C(=O)Cc2cccs2)C(C(=O)NC2CCCC2)c2ccc(C)o2)c1 (stereo not drawn) ?
KCNQ2 block: inactive; KCNQ2 block baseline: -0.4

Molecules listed so far that contain a COOH group, in the order listed:
What do the screens show for `O=C(O)/C=C/c1ccc(S(=O)(=O)Nc2cccnc2)cc1`?
KCNQ2 block: inactive; KCNQ2 block baseline: 2.5

What do the screens show for `O=C(NC(Cc1ccccc1)C(=O)O)/C(=C/c1ccc(Br)cc1)NC(=O)c1ccc(Br)o1` (stereo not drawn)?
KCNQ2 block: inactive; KCNQ2 block baseline: 1.9

What do the screens show for `Cc1cc(COc2ccccc2)oc1C(=O)O`?
KCNQ2 block: inactive; KCNQ2 block baseline: -0.35

How did O=C(O)c1ccc(CNC(=O)c2ccccc2NC(=O)c2ccc([N+](=O)[O-])cc2)cc1 do in these assays?
KCNQ2 block: inactive; KCNQ2 block baseline: 0.01

Next part
Results for O=C(NNC(=O)c1cc(-c2ccc(Cl)cc2Cl)nc2ccccc12)Nc1ccccc1 ?
KCNQ2 block: inactive; KCNQ2 block baseline: 1

How did Nn1c(-c2ccco2)n[nH]c1=S do in these assays?
KCNQ2 block: inactive; KCNQ2 block baseline: -0.36

Results for Cc1c(Br)c([N+](=O)[O-])nn1CC(=O)Nc1ccc2nc3n(c(=O)c2c1)CCCC3 ?
KCNQ2 block: inactive; KCNQ2 block baseline: -0.23

What do the screens show for `Cc1ccc(C2=NN(S(C)(=O)=O)C(c3ccc4nccnc4c3)C2)cc1` (stereo not drawn)?
KCNQ2 block: inactive; KCNQ2 block baseline: -0.52

How did Cc1cc(C)c(CSc2nnnn2-c2ccc(C(=O)O)cc2)c(C)c1 do in these assays?
KCNQ2 block: inactive; KCNQ2 block baseline: -0.52

Results for COc1ccccc1-c1cc(C(=O)Nc2sc3c(c2C#N)CCC(C)C3)c2ccccc2n1 (stereo not drawn) ?
KCNQ2 block: inactive; KCNQ2 block baseline: 0.73

What do the screens show for `CCN1CCN(CCCNC(=O)c2cc3sccc3n2CC)CC1`?
KCNQ2 block: inactive; KCNQ2 block baseline: -2.3

What do the screens show for `COC(=O)c1c(NC(=O)Cc2cccs2)sc2c1CCCC2`?
KCNQ2 block: -8.4*; KCNQ2 block baseline: -0.29*

What do the screens show for `COc1ccc(CNc2ncc(-c3ccc(F)cc3)n2C)c2ccccc12`?
KCNQ2 block: -6.2*; KCNQ2 block baseline: -0.29*

How did COc1cccc(C(c2sc3nc(C)nn3c2O)N2CCC3(CC2)OCCO3)c1 (stereo not drawn) do in these assays?
KCNQ2 block: inactive; KCNQ2 block baseline: -0.82

Results for O=C(c1ccccc1SCc1ccc(F)cc1)N1CCOCC1 ?
KCNQ2 block: inactive; KCNQ2 block baseline: 0.31

What do the screens show for `COc1ccc(/C=C2\SC(=O)N(CC(=O)Nc3ccc(F)cc3)C2=O)cc1O`?
KCNQ2 block: inactive; KCNQ2 block baseline: 2.6

Results for COc1cccc(N2C(=O)C3CC=C(Cl)CC3C2=O)c1 (stereo not drawn) ?
KCNQ2 block: inactive; KCNQ2 block baseline: 0.06

Results for Cc1ccccc1-c1cc(-c2ccccc2O)n[nH]1 ?
KCNQ2 block: inactive; KCNQ2 block baseline: -0.66

How did Cc1sc(NC(=O)C2CSC3(C)CCC(=O)N23)nc1-c1ccccc1 (stereo not drawn) do in these assays?
KCNQ2 block: -6.9*; KCNQ2 block baseline: -1*

What do the screens show for `Cc1cc(C)nc(N(C#N)Cc2cccc([N+](=O)[O-])c2)n1`?
KCNQ2 block: inactive; KCNQ2 block baseline: -0.92

What do the screens show for `O=C(COc1ccccc1)N1c2ccccc2Sc2ccccc21`?
KCNQ2 block: inactive; KCNQ2 block baseline: 1.5

Results for Cc1nc2ccccc2nc(C)c1=NOCc1cccc(F)c1 ?
KCNQ2 block: inactive; KCNQ2 block baseline: 0.68

Results for O=C(NC12CC3CC(CC(C3)C1)C2)c1ccco1 ?
KCNQ2 block: inactive; KCNQ2 block baseline: -1.3

How did CC(C)(C)C(=O)Nc1nnc(SCC(=O)NC2CCCCC2)s1 do in these assays?
KCNQ2 block: inactive; KCNQ2 block baseline: 0.4

What do the screens show for `CCOC(=O)C1CN(S(=O)(=O)c2ccc(OC)cc2)c2cc(CC(=O)OC)ccc2O1` (stereo not drawn)?
KCNQ2 block: inactive; KCNQ2 block baseline: -1.3

Results for Cc1[nH]c(C)c(S(=O)(=O)N2CCc3ccccc32)c1C(=O)N1CCCCC1 ?
KCNQ2 block: inactive; KCNQ2 block baseline: 0.68

How did CCN(CC(=O)Nc1ccc(NC(C)=O)cc1)CC(=O)Nc1ccc(F)c(Cl)c1 do in these assays?
KCNQ2 block: inactive; KCNQ2 block baseline: -0.98

How did COc1ccc(/C=C2\SC(=Nc3ccccc3)NC2=O)cc1 do in these assays?
KCNQ2 block: inactive; KCNQ2 block baseline: -0.29

How did COc1ccc(S(=O)(=O)NC(N)=NCCc2ccc(OC)c(OC)c2)cc1 do in these assays?
KCNQ2 block: inactive; KCNQ2 block baseline: 0.04

What do the screens show for `COc1ccc2c(CC(=O)N3CCc4ccccc43)coc2c1`?
KCNQ2 block: inactive; KCNQ2 block baseline: 0.43
